AF4-AF9 inh – inhibitors of human MLL-AF4/AF9 interaction; P42568; AlphaScreen, biotin-AF4 peptide binding to FLAG-AF9; inhibition, % at 10 µM; 350,000 tested, 0.47% active; AID 651704;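 active = every replicate reaching a set inhibition limit, whatever the replicate mean, cut at about 25% in these data; inconclusive = mean inhibition reaches that limit but some replicates miss it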;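 also: 0% = plate neutral control median and 100% = total signal loss; the record names both 10 and 1 µM as test concentration; the first replicate is given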
Target sequence (P42568 whole entry, looked up): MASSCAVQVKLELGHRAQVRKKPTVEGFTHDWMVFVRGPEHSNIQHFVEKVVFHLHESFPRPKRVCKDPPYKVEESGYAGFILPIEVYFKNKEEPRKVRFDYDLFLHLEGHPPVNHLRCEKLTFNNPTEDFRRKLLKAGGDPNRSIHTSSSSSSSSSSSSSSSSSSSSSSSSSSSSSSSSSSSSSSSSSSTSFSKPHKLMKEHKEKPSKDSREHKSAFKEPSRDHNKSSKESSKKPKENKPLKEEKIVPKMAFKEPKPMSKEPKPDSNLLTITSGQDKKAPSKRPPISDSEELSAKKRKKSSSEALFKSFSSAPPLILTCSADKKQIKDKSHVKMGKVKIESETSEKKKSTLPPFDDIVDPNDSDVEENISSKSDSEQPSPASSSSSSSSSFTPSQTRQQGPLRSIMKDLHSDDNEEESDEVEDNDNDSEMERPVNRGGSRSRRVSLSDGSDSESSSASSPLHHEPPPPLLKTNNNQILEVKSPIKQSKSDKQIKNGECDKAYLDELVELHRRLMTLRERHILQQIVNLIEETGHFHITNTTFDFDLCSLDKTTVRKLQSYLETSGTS
A1 inh – inhibitors of the anti-apoptotic protein A1, read as caspase activation; MEF A1-2A-BIM cells, Caspase-Glo 3/7 luminescence, 3 h; percent of clofoctol response, vehicle zero; caspase activation, % (test concentration not listed); 330,000 tested, 0.066% active;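 active = over half of replicate activation scores above 10%, or exactly half above 10 with the replicate mean above 10; inconclusive = replicate mean below 10 yet half the replicates above 10; inactive = over half of replicates below 10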;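 also: wells of about 30 µL received 50 nL stock; many hits fall short of the cut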
T cruzi inh – blocks replication of Trypanosoma cruzi; T. cruzi beta-gal in NIH3T3, luminescence, 90 h; inhibition, % (test concentration not listed); 300,000 tested, 1.4% active;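 active = mean inhibition across valid replicates above about 55%, limit read from the data; inconclusive = mean below that limit but half or more replicates reach it; inactive = mean below it, under half of replicates reach it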;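 also: signal also drops with host cell toxicity which is not excluded here; 0% = plate median of DMSO wells and 100% = zero luminescence signal; higher percent means less beta-gal luminescence so fewer parasites; stock transfer was 50 nL into about 50 µL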
Calb FLC – affects C. albicans growth with fluconazole. C. albicans CaCi-2 (fluconazole-resistant clinical isolate) + fluconazole, Alamar Blue growth, 48 h. growth inhibition, % (no concentration beside the values). 300,000 tested, 0.57% active. AID 1979;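 active = most replicates above 75%; inconclusive = exactly half above 75%; inactive = most below 75%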;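 also: all wells also contain fluconazole at 8 µg/ml as a sub-toxic cotreatment; 0% = median of DMSO wells and 100% = median of geldanamycin control wells; wells of about 8 µL received 7.5 nL stock; the first replicate is given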
Vif A3G – inhibitors of Vif binding to APOBEC3G peptide, primary screen, biochemical, TR-FRET, GST-Vif 1-94, biotin-A3G peptide, dose response retest (AID 1117319); TR-FRET GST-Vif / biotin-A3G peptide binding; higher % means a stronger effect; test concentration not given here; strong numbers were not always called active; 260,000 tested, 0.57% active; inhibition, %, or IC50 in µM where a hit was titrated;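 active = above the screen mean plus three standard deviations and confirmed in dose response; inconclusive = results disagree or hit not tested in dose response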;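 also: Vif residues 1-94 fused to GST binding biotinylated APOBEC3G peptide 110-148; 0% = full assay without inhibitor and 100% = GST in place of GST-Vif; retest series ran down from 100 µM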
Beta apoptosis – blocks beta cell apoptosis. INS-1E cytokine-induced death, ATP luminescence, 48 h; percent of positive-control rescue, neutral wells zero. protection from apoptosis, % (no concentration beside the values). 300,000 tested, 0.8% active. AID 435005;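 active = all replicates at 75% or more, or half of them and the mean; inconclusive = half reach 75% but not the mean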;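 also: 0% = cytokine-treated negative control wells and 100% = positive control rescue; higher means more ATP so stronger rescue from cytokine killing; wells of about 40 µL received 100 nL stock; the first replicate is given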
RanGTP-Imp inh – inhibitors of RanGTP-importin-beta interaction, primary screen, biochemical, FRET, CFP-Ran, YFP-importin-beta, homogeneous; cell-free CFP-Ran/YFP-importin-beta FRET ratio; inhibition, % (test concentration not listed); 300,000 tested, 1.1% active; AID 2216;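 active = most replicates above 15%; inconclusive = exactly half above 15%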;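 also: 0% = DMSO wells and 100% = Ran loaded with GDP instead of GTP; wells of about 40 µL received 100 nL stock; the first replicate is given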
rRNA inh HTS – inhibits bacterial ribosomal RNA function over humanized ribosomes; E. coli WT GFP vs humanized-ribosome RFP mutants, fluorescence, 24 h; active compounds read low; DMSO median 0, no signal -100; GFP signal change (wild-type ribosome), % (no concentration beside the values); 350,000 tested, 1.6% active; AID 720706;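 active = significant combined selectivity score with lowered wild-type GFP, culture density cut under 30%, mutant RFP and density less affected; inactive = any of these conditions unmet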; also: one replicate is shown; some compounds called inactive have numbers as strong as hits
rRNA inh HTS OD600 – recorded beside rRNA inh HTS, whose call it bears; OD600 change, %; measured here: OD600 growth;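 optical density of the mix in the first replicate; 0 = DMSO median and -100 = no signal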
rRNA inh HTS RFP – further read-out of rRNA inh HTS, marked with its call; RFP signal change, %; measured here: RFP humanized mutant strains;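 first replicate; 0 = DMSO median and -100 = no signal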
* hit, by the source's call; ? = inconclusive; . = not tested or not shown. Not all compounds are listed. The share of hits here may be higher or lower than overall.

SMILES	AF4-AF9 inh	A1 inh	T cruzi inh	Calb FLC	Vif A3G	Beta apoptosis	RanGTP-Imp inh	rRNA inh HTS	rRNA inh HTS OD600	rRNA inh HTS RFP
CS(=O)(=O)N1N=C(c2ccco2)CC1c1ccco1 (centres undefined)	-4.3	0.3	-8	-3	.	-4	-0.3	19	4	5.1
COc1c(F)c(F)c(C(=O)Nc2c(C)cc(Br)cc2C)c(F)c1F	-4.3	1.1	11	-2	1%	-9	3.0	7	4	-5.8
O=C(NC(=S)Nc1cc(C(F)(F)F)ccc1N1CCOCC1)c1ccc(-c2cccc(Cl)c2)o1	.	-0.2	-4	-1	.	-6	-1.9	.	.	.
COCCNC(=O)c1ccccc1NC(=O)c1ccc(OC)c(OC)c1	.	-0.1	-12	4	27%	-7	-0.6	.	.	.
O=C(OCC(=O)N(CCc1ccccc1)Cc1ccccc1)c1cc(S(=O)(=O)N2CCOCC2)ccc1F	-0.9	1.0	-2	-2	-3%	-17	.	2	9	3.6
CCCCn1c(SCC(=O)Nc2ccc(NC(C)=O)cc2)nc2ccccc2c1=O	-8.9	1.7	3	4	3%	0	-0.8	21	16	2.7
C#CCOc1c(Cl)cc(/C=N/O)cc1OC	-4.8	-0.4	-9	3	.	-8	6.2	-16	-3	2.9
Cc1ccc2nc(SCC(=O)Nc3ccccc3N3CCOCC3)c(C#N)cc2c1	.	2.8	-32	.	-6%	23	-2.6	.	.	.
COc1ccc(-c2cccc(NS(=O)(=O)c3cc([N+](=O)[O-])c(C)c([N+](=O)[O-])c3)c2)nn1	-1.2	1.6	4	56	2%	2	-4.0	-2	-10	-0.6
CSc1ccc(-c2c(C#N)c(N)nc3c2CCCC3)cc1	.	0.7	-22	19	-1%	-3	-4.8	.	.	.
Nn1cnnc1N/N=C\c1ccc(-c2ccccc2[N+](=O)[O-])o1	-61	.	-80	14	.	.	-2.0	-14	-19	7.7
CS(=O)(=O)N1CCc2cc(C(=O)Nc3cccc([N+](=O)[O-])c3)ccc21	0.1	0.6	17	-7	-3%	2	-1.1	6	6	3.3
O=C(N/N=C/c1cc([N+](=O)[O-])ccc1O)C12CC3CC(CC(C3)C1)C2	6.8	0.4	15	18	1%	9	-16	9	6	-1.6
CCOc1ccc(CN2CCC(C(=O)Nc3cccc(-c4ccn[nH]4)c3)CC2)cc1Cl	12	.	11	-5	.	.	2.3	-3	-14	1.8
Cc1oc(C(C)(C)C)cc1C(=O)N1CCN(c2ccc(C(F)(F)F)cn2)CC1	.	0.0	12	-6	-4%	9	-3.0	-21	-39	9.7
CC1=C(C(N)=O)C(c2ccccc2)n2nc(-c3cccs3)nc2N1 (centres undefined)	0.9	0.5	-14	2	2%	-2	1.5	4	1	-0.5
CN(C)/N=C/C=C1\CC/C(=C\c2ccc(Br)cc2)C1=O	.	-0.1	-6	-16	?	.	5.7	.	.	.
O=c1c2nnn(-c3cccc(F)c3)c2ncn1Cc1ccccn1	-1.7	0.3	-3	-2	-6%	1	-3.5	-2	1	-4.3
O=C(O)CCC(=O)NCc1ccc2[nH]c3c(c2c1)CCCC3	5.7	-0.1	0	13	17%	2	8.2	-4	7	-1.0
CCOC(=O)c1c(NC(=O)CSc2ncccn2)sc2c1CCN(Cc1ccccc1)C2	5.7	.	56*	6	.	.	135*	-23	-25	-3.0
COc1cc(CNc2ccc(N3CCN(C(C)=O)CC3)cc2)ccc1OCc1ccc(F)cc1	2.3	-1.2	-46	1	29%	6	0.6	-27*	-16*	8.9*
Cc1cc(C(=O)Nc2ccccn2)cs1	.	-7.8	.	8	17%	-17	8.0	.	.	.
O=C(COc1ncnc2ccccc12)N1CCN(S(=O)(=O)c2ccccc2)CC1	.	0.1	-11	-8	-2%	1	0.7	.	.	.
Cc1ncc(CN2CCCC(C(=O)Nc3ccc(-n4ccnc4C)cc3)C2)cn1 (centres undefined)	-0.8	0.0	-11	4	-5%	-1	-1.6	14	11	-4.0
CNC(=O)COC(=O)CCC(=O)c1ccc(Cl)cc1	-3.8	-0.3	-2	-9	2%	-2	-2.9	-1	4	-2.7

Reprinted at random: four entries already listed
SMILES	AF4-AF9 inh	A1 inh	T cruzi inh	Calb FLC	Vif A3G	Beta apoptosis	RanGTP-Imp inh	rRNA inh HTS	rRNA inh HTS OD600	rRNA inh HTS RFP
COc1cc(CNc2ccc(N3CCN(C(C)=O)CC3)cc2)ccc1OCc1ccc(F)cc1	2.3	-1.2	-46	1	29%	6	0.6	-27*	-16*	8.9*
COc1ccc(-c2cccc(NS(=O)(=O)c3cc([N+](=O)[O-])c(C)c([N+](=O)[O-])c3)c2)nn1	-1.2	1.6	4	56	2%	2	-4.0	-2	-10	-0.6
CS(=O)(=O)N1CCc2cc(C(=O)Nc3cccc([N+](=O)[O-])c3)ccc21	0.1	0.6	17	-7	-3%	2	-1.1	6	6	3.3
Nn1cnnc1N/N=C\c1ccc(-c2ccccc2[N+](=O)[O-])o1	-61	.	-80	14	.	.	-2.0	-14	-19	7.7

(cont.)
SMILES	AF4-AF9 inh	A1 inh	T cruzi inh	Calb FLC	Vif A3G	Beta apoptosis	RanGTP-Imp inh	rRNA inh HTS	rRNA inh HTS OD600	rRNA inh HTS RFP
O=C(O)c1cccc(CSc2ncn[nH]2)c1	9.3	-0.8	-20	-5	13%	-1	9.2	-15	5	8.2
O=C(CCC1CCCN(Cc2ccc3c(c2)OCCO3)C1)NCc1ccccc1F (centres undefined)	2.7	-0.3	49	-10	3%	1	0.6	9	5	-2.6
O=C(N/N=C/c1cccs1)c1[nH]ncc1Br	-0.2	-12	13	-15	0%	7	3.8	1	13	-1.4
Nc1c([N+](=O)[O-])c(=O)sc2ccccc12	0.1	1.0	2	2	2%	.	2.6	3	-4	0.0
COc1ccc(OC)c(NC(=O)C2CCN(c3nc(C)cc(C)n3)CC2)c1	.	0.8	-9	-5	-4%	-4	1.3	.	.	.
CCN(CC(=O)Nc1ccc(NC(C)=O)cc1)C(=O)c1ccc(NC2CC2)c([N+](=O)[O-])c1	0.7	?	-2	.	.	4	-0.2	1	-4	-1.2
CCC(CCC(=O)Nc1cccc([N+](=O)[O-])c1)C(=O)O (centres undefined)	-0.8	-0.3	2	8	4%	1	6.3	5	2	-7.7
COCCn1cnc2c1c(=O)n(Cc1ccc(C#N)cc1)c(=O)n2Cc1ccccc1	4.7	-0.3	7	-2	.	-7	0.7	-6	5	0.5
COc1ccc(NC(=O)c2ccccc2NC(=O)c2ccccc2)cc1	-0.7	-0.2	-1	1	-5%	0	4.0	10	7	0.3
CCOc1ccccc1-n1c(=O)c2ccccc2c2ccccc2c1=O	-0.3	0.6	-11	-12	.	-10	-12	-3	-6	-1.6
CC(C)NC(=S)NCc1cccs1	-2.3	0.1	-4	28	-15%	1	0.2	-10	0	1.5
O=C(CCCCCNC(=O)c1ccccc1Cl)N/N=C/c1ccco1	0.0	-1.5	-17	-3	4%	-5	3.2	21	8	1.3
COCCn1c(=NC(=O)c2cc(-c3cccs3)nc3ccccc23)sc2cc(S(N)(=O)=O)ccc21	.	-0.4	67*	-5	.	12	?	.	.	.
CCOC(=O)C1=C(COC(=O)c2ccc(Br)o2)NC(=O)NC1C (centres undefined)	-2.7	0.9	1	-6	-2%	2	-1.5	5	2	-2.3
COC(=O)c1c(NC(C)=O)sc(C(=O)N2CCOCC2)c1C	-0.9	-0.4	-6	2	.	-7	-3.3	12	13	0.5
CCCNC(=O)CN1C(=O)COc2ccc(S(=O)(=O)N3CCCCCC3)cc21	0.3	.	-6	1	-1%	.	1.2	-4	-5	-1.0
CCOc1ccc(N2C(=O)Nc3ccccc3C2(O)C(=O)NCc2ccc(F)cc2)cc1 (centres undefined)	-1.2	-0.1	-6	14	.	2	1.0	2	-3	1.7
COc1ccc(CCNC(=O)COC(=O)/C=C/c2ccc3c(c2)OCO3)cc1	-1.8	-0.6	.	.	-7%	-3	.	0	14	-2.3
Cc1ccc(NS(=O)(=O)c2c(C)[nH]c(C)c2C(=O)N2CCCCC2)cc1C	4.6	0.2	29	-1	.	-5	-5.4	6	2	1.0
CC1CN(S(=O)(=O)c2ccc(C(=O)Nc3ccc(S(=O)(=O)Nc4ncccn4)cc3)cc2)CC(C)O1 (centres undefined)	-0.2	-0.5	-3	3	9%	.	8.1	.	.	.
CC(=O)c1cc2c(cc1NC(=O)c1c(-c3ccccc3)noc1C)OCO2	.	1.0	-6	0	8%	-11	7.1	.	.	.
COc1cc(C=O)c(Cl)cc1OCC(N)=O	-1.9	0.1	-18	-2	-18%	-4	4.2	7	-6	0.9
CS(=O)(=O)N(CC(=O)N1CCCCC1)c1cccc(F)c1	-2.6	0.3	-2	-9	0%	-3	-2.9	10	11	-0.1
O=C1c2ccccc2C(=O)N1Cc1ccco1	.	-0.5	-3	7	6%	-4	3.5	.	.	.
O=Cc1cccn1Cc1ccccc1[N+](=O)[O-]	0.1	0.7	-10	-6	.	-4	0.8	5	9	0.0

Record cards (already shown). Order of screens: AF4-AF9 inh | A1 inh | T cruzi inh | Calb FLC | Vif A3G | Beta apoptosis | RanGTP-Imp inh | rRNA inh HTS | rRNA inh HTS OD600 | rRNA inh HTS RFP
O=C1c2ccccc2C(=O)N1Cc1ccco1 in the list: . | -0.5 | -3 | 7 | 6% | -4 | 3.5 | . | . | .
CCOc1ccccc1-n1c(=O)c2ccccc2c2ccccc2c1=O in the list: -0.3 | 0.6 | -11 | -12 | . | -10 | -12 | -3 | -6 | -1.6
O=C(N/N=C/c1cccs1)c1[nH]ncc1Br in the list: -0.2 | -12 | 13 | -15 | 0% | 7 | 3.8 | 1 | 13 | -1.4
CC(C)NC(=S)NCc1cccs1 in the list: -2.3 | 0.1 | -4 | 28 | -15% | 1 | 0.2 | -10 | 0 | 1.5
CC1CN(S(=O)(=O)c2ccc(C(=O)Nc3ccc(S(=O)(=O)Nc4ncccn4)cc3)cc2)CC(C)O1 (centres undefined) in the list: -0.2 | -0.5 | -3 | 3 | 9% | . | 8.1 | . | . | .

Screening data as filed in PubChem BioAssay.
